Screening data deposited in PubChem BioAssay by Broad Institute.
S100A4 inh HTS: S100A4-myosin IIA interaction inhibition; P26447; S100A4/TAMRA-MyoIIA peptide fluorescence polarization; inhibition, % at 10.7 µM; 360,000 tested, 0.14% active; AID 652163;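 active = mean inhibition of at least 70% across replicates, with every replicate also reaching that level; inconclusive = mean inhibition reaches 70% but some replicates fall short; inactive = mean inhibition below 70%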
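Material: S100A4 monomer protein / Buffer or medium: 50 mM HEPES pH 7.2, 10 mM CaCl2, 100 mM KCl / Times: 5 min incubation before reading / Benchmarks: neutral control DMSO, positive control TFP / Reagent: labelled myosin peptide probe, 5 nM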
ERAP1 HTS inh: blocks human ERAP1 aminopeptidase activity; Q9NZ08; recombinant ERAP1, Leu-AMC fluorescence, 60 min; inhibition, % at 10.7 µM; 340,000 tested, 0.15% active; AID 652197;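 active = mean replicate inhibition of at least 30%, or all replicates individually reaching that 30% level; inactive = mean below 30% and not every replicate reaching it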;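 also: 0% = neutral control wells and 100% = L-leucinethiol positive control wells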
E-selectin induc: E-selectin induction on HUVECs; P16581; HUVEC E-selectin immunofluorescence imaging; normalized: neutral wells 0, TNF-alpha wells 100; activation, % at 7.58 µM; 260,000 tested, 0.37% active; AID 686992;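 active = mean E-selectin-positive cell signal at least 10% of the positive control, reached in at least 60% of replicates, without over 20% cell loss; inconclusive = no rule given, readout overlaps actives, possibly toxicity-flagged; inactive = the rest, including those meeting only one limit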;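 also: in these data hits start at about 27%; measured in HUVEC primary endothelial cells; signal is the percent of cells scored E-selectin positive by PE staining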
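Test system: HUVEC | Signal: Immunofluorescence imaging | Read-out: Percent E-selectin-positive cells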
ERp5 block: blocks human ERp5 reductase activity on insulin | Q15084 | ERp5 insulin aggregation, absorbance 650 nm, 90 min | inhibition, % at 9.99 µM | 350,000 tested, 0.05% active;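 active = mean replicate inhibition above about 25%, with every replicate also reaching it, limit read from the data, passing the limit was not always enough; inconclusive = only one of those two criteria met; inactive = neither criterion met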
Active calls of the source: *; u = inconclusive; x = no result given; & = joins results of further samples. A portion of the library. The share of hits here may be higher or lower than overall.

SMILES	S100A4 inh HTS	ERAP1 HTS inh	E-selectin induc	ERp5 block
C[C@H]1CCCCO[C@H](CN(C)S(=O)(=O)c2ccc(F)cc2)[C@@H](C)CN([C@@H](C)CO)C(=O)c2cc(NC(=O)Nc3ccccc3)ccc2O1	x	x	0.3	x
CCN(CC)CCn1nc2c3c(cccc3c1=O)-c1ccccc1-2	0	2	x	1
COc1ccc(CC(C)NCC(O)c2ccc(O)c(NC=O)c2)cc1 (stereo not drawn)	5&-1	-2&-2	0.0&-0.1	18&-1
C[C@@H]1CCCCO[C@H](CN(C)S(=O)(=O)c2ccc(F)cc2)[C@@H](C)CN([C@@H](C)CO)C(=O)c2cc(NC(=O)Nc3ccccc3)ccc2O1	x	x	0.0	x
C[C@@H]1CCCCO[C@H](CN(C)S(=O)(=O)c2ccc(F)cc2)[C@H](C)CN([C@@H](C)CO)C(=O)c2cc(NC(=O)Nc3ccccc3)ccc2O1	x	x	-0.3	x
CC(C)(C)CC(C)(C)c1ccc(OCCOCC[N+](C)(C)Cc2ccccc2)cc1	15	23	1.4	6
CC(=O)Nc1cccc(-c2nnc(-c3ccc(C)cc3)o2)c1	2	4	x	3
COc1ccc(C2CC(c3ccccc3)=NN2C(=O)CCCC(=O)O)cc1 (stereo not drawn)	2	-5	x	1
CCN(CC)CCCC(C)n1c2nc(=O)[nH]c(=O)c-2nc2cc(Cl)ccc21 (stereo not drawn)	u	5	0.3	19

Looked up above.
Reading for CCN(CC)CCCC(C)n1c2nc(=O)[nH]c(=O)c-2nc2cc(Cl)ccc21 (stereo not drawn) under ERAP1 HTS inh: 5
Reading for C[C@@H]1CCCCO[C@H](CN(C)S(=O)(=O)c2ccc(F)cc2)[C@H](C)CN([C@@H](C)CO)C(=O)c2cc(NC(=O)Nc3ccccc3)ccc2O1 under E-selectin induc: -0.3
Reading for COc1ccc(C2CC(c3ccccc3)=NN2C(=O)CCCC(=O)O)cc1 (stereo not drawn) under S100A4 inh HTS: 2
Reading for CC(=O)Nc1cccc(-c2nnc(-c3ccc(C)cc3)o2)c1 under S100A4 inh HTS: 2

Arranged by SMILES length (rising): part of the list above.
SMILES	S100A4 inh HTS	ERAP1 HTS inh	E-selectin induc	ERp5 block
CC(=O)Nc1cccc(-c2nnc(-c3ccc(C)cc3)o2)c1	2	4	x	3
COc1ccc(CC(C)NCC(O)c2ccc(O)c(NC=O)c2)cc1 (stereo not drawn)	5&-1	-2&-2	0.0&-0.1	18&-1
CC(C)(C)CC(C)(C)c1ccc(OCCOCC[N+](C)(C)Cc2ccccc2)cc1	15	23	1.4	6
C[C@H]1CCCCO[C@H](CN(C)S(=O)(=O)c2ccc(F)cc2)[C@@H](C)CN([C@@H](C)CO)C(=O)c2cc(NC(=O)Nc3ccccc3)ccc2O1	x	x	0.3	x
